PINK1 expr mod – modulators of PINK1 expression. PINK1 immunofluorescence, high-content cytometry, 24 h. Potency, µM (highest dose often 76.6 µM), for inactives: top-dose activation (PINK1 increase), usual class: activators. actives 0.2% (n = 410,000). AID 624263; active = well fitted activation curve with a large enough effect; inconclusive = small, poorly fitted or top-dose-only effect; inactive = flat fitted curve, though single readings scatter; cell line not stated here;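 note: potency is the fitted concentration of half-maximal effect; % of control where 0% means no effect; nearly all actives have a fitted effect of over 65% in size; a mitochondrial uncoupler was the plate control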
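Readout is PINK1 immunofluorescence, quantified alongside mitochondrial, cell and nuclear markers by laser-scanning microplate cytometry. Cells from a stable line were exposed to compound titrations (5 concentrations) for 24 hours, with CCCP controls.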
D2 PAM – potentiates the human D2 dopamine receptor allosterically; AID 624464; potentiation, % (concentration not given with the values); actives 0.23% (n = 360,000); DiscoveRx D2 beta-arrestin cells, luminescence, 90 min; 100% = 57 uM dopamine signal; P14416; active = potentiation of 50% or more; inconclusive = 30% to 50%; inactive = 30% or less;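 note: compound concentration not given in the record; tested on top of an EC20 dose of dopamine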
Target sequence (P14416 whole entry, looked up): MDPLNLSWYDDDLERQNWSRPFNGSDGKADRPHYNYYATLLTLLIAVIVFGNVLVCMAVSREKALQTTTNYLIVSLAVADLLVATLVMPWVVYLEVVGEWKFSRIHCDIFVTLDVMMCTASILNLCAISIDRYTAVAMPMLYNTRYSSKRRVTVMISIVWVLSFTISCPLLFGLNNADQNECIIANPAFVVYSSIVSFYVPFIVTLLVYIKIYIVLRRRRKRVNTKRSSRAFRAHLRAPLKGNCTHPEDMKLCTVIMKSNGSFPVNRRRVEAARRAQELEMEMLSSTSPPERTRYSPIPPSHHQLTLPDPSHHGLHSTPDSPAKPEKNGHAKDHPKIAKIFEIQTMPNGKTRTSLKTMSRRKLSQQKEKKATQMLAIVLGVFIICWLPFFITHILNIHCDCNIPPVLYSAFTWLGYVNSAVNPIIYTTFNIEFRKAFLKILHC
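D2 cells co-treated with compound plus 50 nM dopamine (EC20) for 90 min at 37 deg C to detect potentiation. Beta-arrestin recruitment was read as enzyme-fragment luminescence after 1 h at ambient temperature. Full response was set by 57 uM dopamine.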
Sfp PPTase inh – Sfp phosphopantetheinyl transferase inhibition; actives 3.5% (n = 310,000); Q9F4F7; Biochemical Sfp PPTase activity, qHTS; Potency, µM, inactives show max response, negative = inhibition, actives largely listed as inhibitors; active = well fitted inhibition curve with a large enough effect; inconclusive = small, poorly fitted or top-dose-only effect, or another doubt; inactive = no such curve, though single readings can be large or run the other way;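 note: the enzyme is Sfp with the accession as filed and its product quenches rhodamine fluorescence; potency is the fitted concentration of half-maximal effect; 0% = enzyme reaction without inhibitor and -100% = no enzyme wells; top concentration of the series not given in the record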
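Sfp 15 nM + cpd, 15 min RT; start w/ rhodamine-CoA 5 uM, BHQ-2-YbbR 12.5 uM (final); 50 mM Hepes pH 7.6, 10 mM MgCl2, 0.01% NP-40, 0.01% BSA; read 525/598 nm at 0 and 30 min.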
Six1-Eya2 inh – Six1/Eya2 interaction inhibition; Q15475+O00167; actives 0.56% (n = 360,000); AlphaScreen GST-Six1/His-Eya2 binding, biochemical; stronger effect = lower value; control for the full effect not named in the record; activity change, % (concentration not given with the values); in the data active = activity change below about -65%; inconclusive = about -30% to -65%; inactive = above about -30%; note: % is set by controls: 0 for no effect and ±100 for the full control effect
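Compounds are tested against tagged Six1 and Eya2 proteins bridged by glutathione donor and nickel acceptor beads; after a one-hour incubation at 37 °C without light, AlphaScreen emission is recorded.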
TRPV1 potentiator – human TRPV1 potentiation. Q8NER1. TRPV1-expressing cells, Fluo-8 calcium influx, capsaicin EC20 potentiation; host cell line not named in the record; control for the full effect not named in the record. potentiation, % at 8.33 µM. actives 0.02% (n = 320,000). AID 540277; active means potentiation above 80%; inconclusive means 30% to 80%; inactive means below 30%; note: 0% is about no effect
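Cells expressing TRPV1 were dye-loaded with Fluo-8 and read kinetically: 10 s baseline, 3 min after compound (agonist portion), then 2 min after EC20 capsaicin (allosteric enhancer portion). Calcium-bound dye fluorescence at 480/520 nm.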
D2 agonist – agonists of human D2 dopamine receptor (beta-arrestin) | AID 624465 | activation, % (test concentration not listed) | actives 0.084% (n = 360,000) | P14416 | DiscoveRx PathHunter D2 beta-arrestin, luminescence, 90 min; 100% = 57 uM dopamine signal; in the data active = activation above about 40%; inconclusive = about 15% to 40%; inactive = below about 15%; note: compound concentration not given in the record; the text of the record calls up to 30% inactive
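Agonist mode: compounds alone added to overnight-plated D2 PathHunter cells for 90 min at 37 C, with 57 uM final dopamine (EC100) defining full response. Beta-arrestin recruitment detected by chemiluminescent reagent, read after 1 h at ambient temperature.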
CtBP-E1A inh – inhibitors of CtBP/E1A interaction; AlphaScreen GST-E1A/His-CtBP binding, 1536-well; stronger effect = lower value; control for the full effect not named in the record; activity change, % (concentration not given with the values); actives 0.49% (n = 340,000); AID 651724; in the data active means activity change below about -65%; inconclusive means about -30% to -65%; inactive means above about -30%; note: % is set by controls: 0 for no effect and ±100 for the full control effect
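Protein mix (5X: 125 nM each GST-E1A, His-CtBP) was incubated with pinned compound 2 h at 37 deg C in dark, in 50 mM Tris pH 8.0 buffer with 300 mM NaCl. Glutathione donor and nickel acceptor beads followed; AlphaScreen signal read after 1 h.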
* hit, by the source's call; ? = inconclusive; nt = no result given; & = joins results of further samples; [ ] = dose if it differs, or a comment.

SMILES	PINK1 expr mod	D2 PAM	Sfp PPTase inh	Six1-Eya2 inh	TRPV1 potentiator	D2 agonist	CtBP-E1A inh
CCN1CCN(C(=O)CN(c2ccc(F)c(Cl)c2)S(C)(=O)=O)CC1	-1.3%	-6	18%	1	-3	1.8	-1
O=C(Nc1c[nH]c(=O)[nH]c1=O)c1ccccc1Br	-1.2%	-3	4%	2	4	-1.4	5
COc1nccnc1NS(=O)(=O)c1ccc(NC(=S)NC(=O)c2ccc(F)cc2)cc1	-0.8%	-40	50µM*	8	16	-5.2	3
CCOC(=O)Cn1cnc2c(cnn2-c2ccc(OC)cc2)c1=O	1.9%	-1	12%	-3	3	0.6	4
CNC1=CC(=O)CC(c2ccccc2)C1 (centres undefined)	1.9%	-4	12%	10	-3	-5.5	-14
CC1CCC(=C(C#N)C(=O)Nc2cccc(Cl)c2)CC1 (centres undefined)	nt	-23	-5%	4	-8	-2.7	9
Cc1ccc(-c2nnn(CC(=O)N(c3cccc(F)c3)C(C(=O)NC(C)(C)C)c3ccco3)n2)o1 (centres undefined)	11%	2	-17%	-2	2	-3.6	-3
C=CCNS(=O)(=O)CC12CCC(CC1=O)C2(C)C (centres undefined)	-1.6%	5	-7%	6	-4	0.4	8
Cc1cccc(NC(=O)CSCC(=O)Nc2cc(S(=O)(=O)N3CCOCC3)ccc2OC(C)C)c1	1.9%	-22	nt	-5	3	-5.6	6
CCCn1c(C2CCCN2c2nc(-c3cccc(Br)c3)cs2)nc2cc(Cl)c(Cl)cc21 (centres undefined)	1.8%	-15	-23%	1	-3	-3.9	-1
CN1CCN(c2ccc(Cl)cc2NC(=O)C2COc3ccccc3O2)CC1 (centres undefined)	1.7%	-14	-3%	-10	2	-0.3	-12
Cc1ccc(S(=O)(=O)NNC(=O)c2cccnc2)cc1	0.1%	-3	-4%	2	-15	0.2	0
O=C(CSc1ccc(-c2ccccn2)nn1)N1CCCc2ccccc21	-0.8%	-3	9%	-80*	-13	2.3	-66*
Cc1ccsc1C1Nc2ccc3ncccc3c2C2=C1C(=O)CCC2 (centres undefined)	4.5%[38.3 µM]	-3	-7%	-20	-16	-0.2	-27
O=C(COC(=O)CSc1ccc(F)cc1)NCCCc1ccccc1	-2.0%	17	nt	-4	-30	-1.7	11
Cc1ccc(NCc2nnc(SCC(=O)N3CCCc4ccccc43)o2)c(C)c1	1.6%	-16	-4%	-3	4	-2.8	-2
C=CCn1c(SCC(=O)Nc2ccc(N3CCOCC3)cc2)nnc1-c1ccncc1	-0.1%	-9	3%	2	-2	-4.2	3
O=c1[nH]c2cc3c(cc2cc1CN(CC1CCCO1)S(=O)(=O)c1ccccc1)OCCO3 (centres undefined)	nt	-18	13%	-3	5	-1.6	12
CCOC(=O)C1C(=O)NC(N2CCCCC2)=NC1c1ccccc1 (centres undefined)	nt	3	27%	24	-4	-2.2	0
O=C(NCC(=O)N1CCCC1)c1ccc(Cl)cc1	-1.4%	-1	23%	7	-5	2.2	-14
Cc1c(NC(=O)CN2C(=O)C(=O)c3ccccc32)c(=O)n(-c2ccccc2)n1C	-1.4%	-3	3%	10	1	-2.3	8
O=C(OCc1nc2ccccc2[n+]([O-])c1C(=O)c1ccccc1)c1ccco1	1.9%	-5	16%	-2	-20	-4.4	-2
CN(C)C(=O)CCc1ccc2c3c([nH]c2c1)[C@]1(CCc2ccccc2)[C@@H](C(=O)N2CCCCC2)C[C@H](CC(=O)NC(C)(C)C)C(=O)N1CC3	1.6%	-5	nt	-4	nt	-2.5	-12
C(=N\Nc1nc(-c2ccccc2)cs1)/c1cccnc1	4.2%[38.3 µM]	11	56µM*	-14	-25	3.4	-12
CCOc1ccc(NC(=O)c2ccccc2OC)cc1	-0.6%	-4	-1%	3	-19	-3.1	2
Cc1ccc(NC(=O)C2CCN(S(=O)(=O)c3c(C)n[nH]c3C)CC2)nc1	0.1%	-7	15%	2	8	-1.6	-7
CCCOC(=O)Nc1cc(OC)ccc1[N+](=O)[O-]	-1.3%	-7	20%	1	4	4.7	nt
CN(Cc1ccc(F)cc1)C(=O)c1ccc2c(c1)NC(=O)CS2	-0.7%	-7	7%	8	1	3.4	0
O=C(CSc1ccccn1)N1CCOCC1	1.9%	-9	4%	-7	-4	-2.3	-1
CC(C)[C@H](NS(=O)(=O)c1ccccc1)C(=O)OCC(=O)NC(=O)NC1CCCCC1	-0.8%	-6	nt	-3	nt	3.0	0
COc1ccccc1Oc1ccc(-c2cnc3ccccc3n2)cc1[N+](=O)[O-]	5.5%	3	18%	-25	9	-1.9	-14
O=C1NC(=O)N(Cc2ccccc2F)C1=O	-0.6%	-14	?	5	-19	2.8	nt
CC(C)(C)OC(=O)N1CCC[C@H]1C(=O)OCC(=O)Nc1cc(S(C)(=O)=O)ccc1Cl	-1.2%	-19	nt	-1	29	0.4	6
CC1CC(C(F)(F)F)n2ncnc2N1 (centres undefined)	-0.3%	-1	14%	-1	-1	0.8	6
COc1ccc(Cl)cc1NC(=O)c1noc(C)c1[N+](=O)[O-]	-0.9%	8	10%	7	-6	6.4	nt
Cc1cc(N2CCOCC2)n2nc(C)c(-c3ccccc3)c2n1	-0.3%	-4	-8%	13	-3	-0.4	5
O=C(CSc1nnc(-c2ccncc2)o1)Nc1ccccc1C(F)(F)F	1.3%	-27	16%	2	-10	-2.8	14
COc1cc2ccccc2cc1C(=O)NC(=S)Nc1cc(C(=O)O)ccc1C	-0.1%	3	-4%	-2	21	1.2	-2
Cc1[nH]nc(-c2ccc(OCc3cnn(-c4ccccc4)c3)cc2O)c1Oc1ccc(Cl)cc1	5.1%	7	27%	-6	20	2.7	-6
Cc1cc(Cl)c(S(=O)(=O)N2CC(C)OC(C)C2)cc1OCC(N)=O (centres undefined)	-0.6%	-12	4%	3	3	-8.1	5
COCCN1C(=O)c2ccccc2C(C(=O)NCCCN2CCCC2=O)C1c1c[nH]c2ccccc12 (centres undefined)	-1.8%	-2	17%	8	12	-2.2	2
O=C(O)CCCC(=O)Nc1ccccc1C(=O)N1CCCC1	3.1%	-12	24%	8	-22	-1.1	-5
Cn1nnnc1SCCNCc1ccncc1	?	-7	10%	4	2	0.0	2
Cc1cc(O)ccc1N1C(=O)c2cccc3cc([N+](=O)[O-])cc(c23)C1=O	12%	?	23%	-1	-9	?	7
CCN(CC(=O)N1CCCC1)S(=O)(=O)c1cc(C)ccc1OC	0.4%	7	15%	-5	-28	3.2	3
COc1ccc(CCn2c(C3CCCCC3)nc3c(c(=O)c4ccccc4n3C)c2=O)cc1	2.5%	-8	-5%	-3	-6	-3.7	nt
Clc1ccc(-n2nnc(-c3ncc[nH]3)n2)cc1Cl	0.9%	-13	nt	-2	nt	-2.1	-7
CC(C)(C)NC(=O)NC(=O)CSc1nncs1	-0.3%	-13	25%	11	3	-1.3	nt
COc1ccc(C(=O)NCc2ccco2)cc1S(=O)(=O)N1CCOCC1	-0.3%	-3	15%	-6	-5	-2.3	4
CCCn1c(Nc2nc3ccccc3n2C)nc2ccccc21	-5.1%	-13	?	-1	2	0.7	-1
COC(=O)CCCC1=CC2=CC(=O)C(C)(OC(=O)c3cccs3)C(=O)C2=CN1C1CCCCC1 (centres undefined)	1.6%	5	-4%&11%	-2	-26	6.3	nt
COc1ccc(-c2csc(-n3ncc(-c4cccs4)c3N)n2)cc1	?	-7	12%	-3	14	0.4	-9
CC(=O)c1sc(NC(=O)C2CCCN2S(=O)(=O)c2ccccc2F)nc1C (centres undefined)	7.0%	-2	nt	-2	-3	-2.7	-15

Entries above containing an aryl methoxy group:
SMILES	PINK1 expr mod	D2 PAM	Sfp PPTase inh	Six1-Eya2 inh	TRPV1 potentiator	D2 agonist	CtBP-E1A inh
COc1nccnc1NS(=O)(=O)c1ccc(NC(=S)NC(=O)c2ccc(F)cc2)cc1	-0.8%	-40	50µM*	8	16	-5.2	3
CCOC(=O)Cn1cnc2c(cnn2-c2ccc(OC)cc2)c1=O	1.9%	-1	12%	-3	3	0.6	4
CCOc1ccc(NC(=O)c2ccccc2OC)cc1	-0.6%	-4	-1%	3	-19	-3.1	2
CCCOC(=O)Nc1cc(OC)ccc1[N+](=O)[O-]	-1.3%	-7	20%	1	4	4.7	nt
COc1ccccc1Oc1ccc(-c2cnc3ccccc3n2)cc1[N+](=O)[O-]	5.5%	3	18%	-25	9	-1.9	-14
COc1ccc(Cl)cc1NC(=O)c1noc(C)c1[N+](=O)[O-]	-0.9%	8	10%	7	-6	6.4	nt
COc1cc2ccccc2cc1C(=O)NC(=S)Nc1cc(C(=O)O)ccc1C	-0.1%	3	-4%	-2	21	1.2	-2
CCN(CC(=O)N1CCCC1)S(=O)(=O)c1cc(C)ccc1OC	0.4%	7	15%	-5	-28	3.2	3
COc1ccc(CCn2c(C3CCCCC3)nc3c(c(=O)c4ccccc4n3C)c2=O)cc1	2.5%	-8	-5%	-3	-6	-3.7	nt
COc1ccc(C(=O)NCc2ccco2)cc1S(=O)(=O)N1CCOCC1	-0.3%	-3	15%	-6	-5	-2.3	4
COc1ccc(-c2csc(-n3ncc(-c4cccs4)c3N)n2)cc1	?	-7	12%	-3	14	0.4	-9

Screens deposited in PubChem by National Center for Advancing Translational Sciences (NCATS).
